# Source: PubChem
# Ba CapD inh: inhibitors of Bacillus anthracis CapD enzyme; AID 492967; 140,000 tested, 0.23% active; z-score (no concentration beside the values); purified CapD enzyme, fluorescence intensity read-out; active compounds read low; some hits fall short of the stated cut;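 active means z-score under -4 in either of two replicates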;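 further: stock transfer was 100 nL into about 40 µL; score is relative to mean and spread of the plate; one replicate is shown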
# AID504770: E. coli YBA685 growth inhibition, screen for V. cholerae RctB inhibitors. E. coli YBA685 rctB-dependent plasmid, OD600 growth, 3 h; active compounds read low. z-score (test concentration not listed). 130,000 tested, 0.27% active. AID 504770;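 active means z-score under -2 on both plates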;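 further: wells of about 30 µL received 100 nL stock; score is relative to mean and SD of the test wells; the first replicate is given; strong numbers were not always called active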
# * marks the source's active call; other numbers are inactive results; . = not tested or not shown. Outcome played no part in choosing rows, and some 0.37% of all compounds hit somewhere here.
# Order of results – Ba CapD inh	AID504770
Cc1cc(Oc2ccc(C(F)(F)F)cc2[N+](=O)[O-])ccc1Cl
 : 0.095	.
CCOCCCn1c(=S)[nH]c2cc(C(=O)N3CCC(C(N)=O)(N4CCCCC4)CC3)ccc2c1=O
 : -0.53	.
CCOc1cc(/C=C2/SC(=NC)N(C)C2=O)ccc1OCC(N)=O
 : -0.15	0.3
CCCN1CCC(N(C)CC(=O)OCC)CC1
 : -0.08	-0.35
O=C(O)/C=C/C(=O)N1CCC(Cc2ccccc2)CC1
 : 0.53	-0.7
CC1=NN(c2ccccc2)C(=O)C1=C(C)C
 : -0.19	0
CC(C)CC(=O)Nc1ccccc1C(N)=O
 : 0.08	-1.3
COc1ccccc1/C=C/C(=O)O
 : .	-2.4
CCOc1ccc(C2C(=O)c3ccccc3C2=O)cc1
 : -0.51	-0.85
O=C(Cc1cccc2ccccc12)NCC1(c2ccccc2)CCOCC1
 : 0.29	.
CCCOc1ccc(C2C(C(=O)OCC)=CN(Cc3ccc(OC)cc3)C=C2C(=O)OCC)cc1OC
 : 42	.
COCCn1c(N)c(C(=O)C(C)(C)C)sc1=S
 : .	0.2
Cc1ccc(-c2csc(NC3OC(=O)c4c#cccc43)n2)cc1 (centres undefined)
 : .	1.1
COC(=O)CSCCS(=O)(=O)c1ccc(Cl)cc1
 : 0.62	.
O=C(Cc1n[nH]c(=O)c2ccccc12)Nc1cc(C(F)(F)F)ccc1N1CCCC1
 : .	-0.65
CN(C)c1ccc(CNc2ccc(CNc3ncn[nH]3)cc2)cc1
 : -0.94	1.1
Clc1ccc(Nc2nc3nonc3nc2N2CCCCC2)cc1
 : -1.5	.
CCN1C(=O)/C(=C2\SC(=Nc3ccc(Cl)cc3)N(C)C2=O)c2ccccc21
 : 0.08	-0.35
CC1CCCCC1NC(=O)CO/N=C/c1ccc2c(c1)OCO2 (centres undefined)
 : .	-1.1
CCCCCCCCOc1ccc(C2Nc3cccc4cccc(c34)C(=O)CS2)cc1 (centres undefined)
 : -0.15	.
Cc1ccc(C)c(C(=O)/C=C/C(=O)O)c1
 : 1.1	-0.2
CC12CN3CC(C)(CN(C1)C31C(=O)Nc3ccccc31)C2O (centres undefined)
 : -0.055	-0.95
CC1=C/C(=N/Nc2nc3ccccc3[nH]2)CC(C)(C)C1
 : .	-1.9
Cc1nc(-c2noc(C(=O)NNC(=O)CC(c3ccccc3)(c3ccccc3)c3ccccc3)n2)cs1
 : -1.4	.
COc1cc(C2NC(=O)NC(C)=C2C(=O)OCCc2ccccc2)ccc1OCc1ccccc1 (centres undefined)
 : -0.18	.
O=C1NC(=S)N(c2cccc(Cl)c2)C(=O)/C1=C/c1ccc(N2CCCCC2)o1
 : 0.34	.
Cc1nc2oc3ccccc3c(=O)c2cc1C(=O)NCc1ccc(Cl)cc1
 : -0.21	.
Cc1cc(C(=O)COc2ccccc2C(N)=O)c(C)n1C1CC1
 : .	-0.95
CC(=O)NC(=O)c1cc2cc(Br)ccc2oc1=Nc1ccc(C#N)cc1
 : 0.27	.
CC1=CC(=O)C(C(=O)/C=C/c2ccc(Cl)cc2)C(=O)O1 (centres undefined)
 : -1.2	-1.1
CCOC(=O)c1c(NC(=S)NC(=O)c2ccccc2)sc2c1CC(C)(C)OC2
 : 0.26	.
Cc1cc(C)nc(Sc2ccc(NC(=O)C(C)(C)C)cc2)n1
 : -0.25	.
COC(=O)c1ccccc1-c1ccccc1C(=O)OC
 : -0.34	-0.2
CC(C)CC(=O)Nc1ccc(S(=O)(=O)NCc2ccco2)cc1
 : .	1.4
CN(CC(=O)Nc1ccc2c(c1)OCO2)S(=O)(=O)c1ccc2c(c1)c(=O)n(C)c(=O)n2C
 : 0.16	0.4
CCn1c(=O)cc(SCC(=O)N2CCC(C)CC2)c2ccccc21
 : 8.2	0.75
COc1cc(OC)c(CNC(=O)OCC(C)c2ccccc2)c(OC)c1 (centres undefined)
 : 0.035	.
COc1cccc(NC(=O)CN(C)C(C)C(=O)Nc2cc(Cl)ccc2OC)c1 (centres undefined)
 : .	-0.55
COC(=O)c1c(C)[nH]c(C(=O)CSc2nnc3cc(C)c4ccccc4n23)c1C
 : 9.3	0.4
CCOC(=O)c1cc(-c2nc(C(=O)NN)cs2)c(C)nc1C(F)(F)F
 : -0.17	.
CCCCSc1nnc2c(n1)OC(/C=C/c1ccccc1[N+](=O)[O-])Nc1ccccc1-2 (centres undefined)
 : -0.12	.
N/N=c1\nc2[nH]n(-c3ccccc3)c(=O)c2c2n1CCC2
 : .	-0.25
COC(=O)c1ccc(CN2c3cccc4cccc(c34)S2(=O)=O)o1
 : .	-0.2
Cc1c(NC(=O)C2CCCCN2S(=O)(=O)c2ccc(Cl)cc2)c(=O)n(-c2ccccc2)n1C (centres undefined)
 : -0.28	-0.55
Cn1cc(SCC(=O)NCc2ccco2)c2ccccc21
 : 0.07	-0.8
Cc1nn(C)c(Cl)c1S(N)(=O)=O
 : 0.43	-0.2
O=C1CCN(S(=O)(=O)c2cccs2)CCN1
 : 1.2	-0.6
O=C(NN(c1ccccc1)c1ccccc1)c1ccc(S(=O)(=O)N2CCOCC2)cc1
 : .	-0.55
COc1cc2nc(SCC(=O)NCc3ccco3)n3nc(CCn4nc(C)cc4C)nc3c2cc1OC
 : -0.29	0.1
CCCN1CCC(N(C(=O)c2ccc(Cl)nc2)C2CC2)CC1
 : -0.86	.
CCN(C(C)=O)c1ccccc1C
 : -0.63	2
CCCNC(c1ccccc1)c1ccncc1 (centres undefined)
 : .	-0.8
O=S(=O)(NCC1COc2ccccc2O1)c1ccccc1 (centres undefined)
 : 0.37	0.8
COC(=O)c1sccc1S(=O)(=O)NCc1ccc(S(N)(=O)=O)cc1
 : 1.2	-0.8
O=[N+]([O-])c1ccc(NCCc2c[nH]c3ccccc23)c(Br)c1
 : -2.1	.
Cc1cc(C)n2c(SCC(=O)N(C)C3CCCCC3)nnc2n1
 : .	-0.65
S=c1nc2ccccc2c2nc(-c3cccnc3)[nH]n12
 : .	-0.65
COc1ccc(NC(=O)C2CCCCC2)cc1
 : 0.34	-0.45
CC(=O)Nc1ccc(-c2nc(-c3ccccc3)no2)cc1
 : .	0.3
N#Cc1ccc(S(=O)(=O)N2CCCN(c3ccc(C(F)(F)F)cn3)CC2)cc1
 : -0.62	-0.5

# Going on with the list.
# Order of results – Ba CapD inh	AID504770
Cc1cccc(NC(=O)c2ccccn2)c1
 : .	0.15
O=c1cc(-c2cc(Cl)cc3c2OCOC3)oc2ccc(F)cc12
 : 1.1	-0.3
O=C(NCCN1CCC(Cc2ccccc2)CC1)c1ccc(-c2ccccc2)s1
 : -0.62	-0.2
Cn1ccc2cc(N)ccc21
 : .	-0.7
C[C@@]1(O)CCOC(=O)C1
 : 0.14	.
Cc1ccc(S(=O)(=O)CCc2nnc(N)s2)cc1
 : .	-0.2
CC1(C)Cc2c(C#N)c(SCCc3ccccc3)nc(N3CCOCC3)c2CO1
 : 0.045	-0.5
Cc1ccccc1OCC(=O)NCCN1CCCC1
 : .	-0.85
CC(=O)C12c3ccccc3C(c3ccccc31)C1C(=O)N(c3cc(C(F)(F)F)ccc3Cl)C(=O)C12 (centres undefined)
 : -0.31	.
Cc1ccc(Cl)cc1NC(=O)N1CCC(CN2CCOCC2)CC1
 : -0.6	-1
OC(COc1ccc(Nc2ccccc2)cc1)COc1ccc(Nc2ccccc2)cc1
 : 3	0.45
COc1ccc(C(=O)Nc2ccccc2C(=O)Nc2ccccn2)cc1
 : .	0.1
N#Cc1ccccc1S(=O)(=O)N1CCOCC1
 : 0.8	1.4
Cc1nn(Cc2ccccc2)c(Cl)c1/C=C/C(=O)OCC(=O)N1CCN(C(=O)c2ccco2)CC1
 : .	0.15
COC(=O)/C=C1/OC(c2ccccc2)=CC1=O
 : -1.4	1.6
O=C1C=C(Nc2ccccc2)C(=O)N1c1ccccc1
 : 0.67	.
Cc1cc(=O)n2[nH]c(-c3ccccc3)c(Br)c2n1
 : 0.11	.
Oc1ccccc1C1=CC(c2ccc(Br)cc2)n2ncnc2N1 (centres undefined)
 : -0.13	-0.35
N#Cc1c(N)n(CCN2CCOCC2)c2nc3ccccc3nc12
 : .	0.15
O=c1cc(O)c2sc(Nc3ccccc3)nc2[nH]1
 : 0.055	-0.9
O=S(Cc1ccc(Cl)cc1)c1ncc(CO)n1Cc1ccccc1 (centres undefined)
 : 0.15	.
CCOC(=O)c1c(N)cc2[nH]c(=S)[nH]c(=O)c2c1-c1ccccc1
 : -1.5	-0.8
CC1CN(c2nc(N3CCCC3)nc3ccccc23)CC(C)N1 (centres undefined)
 : 8	-0.45
CCN1CCN(C(=O)C23CC4CC(C2)CC(c2ccc(C)cc2)(C4)C3)CC1
 : .	1.5
CCCNC(=O)C1CCN(c2nn3cc(-c4ccc(OC)cc4)nc3s2)CC1
 : 0.53	2
O=C(Nc1cccc(F)c1)N1CCOCC1
 : .	-0.05
NC(=S)NN=C1c2cc(S(=O)(=O)N3CCOCC3)ccc2-c2ccc(S(=O)(=O)N3CCOCC3)cc21
 : .	2
c1ccc(-c2noc(-c3ccccc3)n2)cc1
 : 0.24	1.3
CCOc1cc(C(=O)Nc2nnc(-c3cccc([N+](=O)[O-])c3)s2)cc(OCC)c1OCC
 : -0.53	.
Cc1ccc(-n2sc3c(c2=S)-c2ccccc2NC3(C)C)cc1
 : -0.53	.
O=C(NCc1ccc(-c2ccc(F)cc2F)o1)c1ccc(Cl)cc1
 : 0.57	.
c1ccc(-c2ncc(-c3ccn[nH]3)s2)cc1
 : 80	0.35
Cc1cc2nc3s/c(=C/c4cc([N+](=O)[O-])c(N5CCCCC5)cc4N4CCCCC4)c(=O)n3c2cc1C
 : -0.12	.
CCOc1ccc(N=CNc2ccc(OCC)cc2)cc1
 : -0.3	-0.1
O=c1ccc(S(=O)(=O)N2CCCC2)cn1Cc1nc2ccccc2s1
 : .	-0.15
CCOC(=O)c1ccc(Nc2c(C(=O)OCC)cnc3c2ccc2ccccc23)cc1
 : 0.38	.
O=C1OCc2ccccc21
 : -0.035	2.1
CCOC(=O)CNc1nn2c(=O)c3ccc(C(=O)OC)cc3nc2s1
 : 1.4	-0.35
Cc1nc2nc(N3C(=O)c4ccc(C(=O)O)cc4C3=O)[nH]n2c(=O)c1Cc1ccccc1
 : -1.5	0.05
CCN(CC)S(=O)(=O)c1ccc(-c2ccc(S(=O)(=O)N(CC)CC)s2)s1
 : 1.6	0.25
O=S(=O)(c1ccccc1)n1ccc2ccccc21
 : -0.86	1.9
O=C(COC(=O)Cc1ccsc1)Nc1ccc(C(F)(F)F)cc1
 : 0.38	-0.2
CCN(Cc1ccccc1)CC(O)COc1ccc(Cl)cc1Cl (centres undefined)
 : -0.42	-1.1
CCOC(=O)c1c(Cl)[nH]c2ccccc2c1=O
 : 0.41	-0.55
NC(N)=NS(=O)(=O)c1ccc(NC(=O)c2ccc(Cl)cc2)cc1
 : 0.64	0
FC(F)(F)c1nc(NC2=NCCCCC2)n[nH]1
 : .	-0.9
CC(Nc1cccc(C(=O)NC2CC2)c1)C(=O)N1CCNC1=O (centres undefined)
 : .	0.45
CCOc1ccc(N2CC(O)(c3ccc(OCC)cc3)[N+]3=C2CCCC3)cc1 (centres undefined)
 : 0.6	.
CCN1/C(=C/c2sc3ccccc3[n+]2CCO)Sc2ccccc21
 : 0.11	0.35
O=C(COC(=O)C1CC2CCCC(C1)C2=O)NC1CCCc2ccccc21 (centres undefined)
 : .	-0.15
NC(=O)c1c(NC(=O)c2cc(-c3ccccc3)on2)sc2c1CCCC2
 : 1.9	1.9
Cc1cccc(CCOC(=O)NCCc2cccc(F)c2)c1
 : -0.33	.
CN=C(Nc1ccc(Cl)cc1)c1cccnc1
 : -0.42	1.3
Cc1nn2c(Br)c(C34CC5CC(CC(C5)C3)C4)nc2s1
 : .	-0.75
CCOC(=O)CSc1nnc(CNc2cccc(C(F)(F)F)c2)n1CC
 : .	-0.15
CCOc1ccc(-c2cc(C(=O)OC)c3ccccc3n2)cc1
 : 3	-0.15
COC(=O)c1ccc(C2Oc3ccc(Cl)cc3C3CC(c4ccc(C)o4)=NN32)cc1 (centres undefined)
 : -0.67	.
O=C(NC1CCCC1)c1ccc(Cn2c(=O)[nH]c3ccsc3c2=O)cc1
 : -0.25	0.95
CCC(C)(C)NC(=O)c1ccc2c(=O)n3c(nc2c1)CCC3
 : .	0.15
CC(Oc1ccccc1Br)C(=O)N1CCc2ccccc21 (centres undefined)
 : 0.035	2.1

# Next section:
# Order of results – Ba CapD inh	AID504770
Cc1ccc2c(c1Br)C(=C(C#N)C#N)C(=O)N2
 : -0.34	-0.3
Clc1ccc(-c2csc(-c3cc4cc(Cl)ccc4oc3=Nc3ccccc3)n2)cc1
 : 0.65	.
O=C(CSc1nc2ccccc2c(=O)[nH]1)c1cc2ccccc2o1
 : 0.95	1.9
CN(C)/C=N/S(=O)(=O)c1cc(C(F)(F)F)cc(C(F)(F)F)c1
 : 0.48	1.9
COc1cccc(-c2nc3sc4c(c3c(=O)n2CC(=O)NCCc2ccc(OC)c(OC)c2)CCCC4)c1
 : 1.1	.
COC(=O)c1ccccc1NC(=O)CN(c1ccccc1)S(C)(=O)=O
 : 0.9	1.1
O=C(CN1C(=O)c2ccccc2S1(=O)=O)c1ccc2c(c1)OCCO2
 : -1.6	-1
Cn1c(-c2ccc3c(c2)OCO3)cn2cc(-c3ccc(Br)cc3)nc12
 : 3.3	-0.05
O=c1[nH]cnc2sc(-c3ccccc3)cc12
 : 5.5	-0.9

# 4 structures from above, sorted by formula weight, falling.
# Order of results – Ba CapD inh	AID504770
Clc1ccc(-c2csc(-c3cc4cc(Cl)ccc4oc3=Nc3ccccc3)n2)cc1
 : 0.65	.
Cn1c(-c2ccc3c(c2)OCO3)cn2cc(-c3ccc(Br)cc3)nc12
 : 3.3	-0.05
O=C(CSc1nc2ccccc2c(=O)[nH]1)c1cc2ccccc2o1
 : 0.95	1.9
O=c1[nH]cnc2sc(-c3ccccc3)cc12
 : 5.5	-0.9
